Screens deposited in PubChem BioAssay by several laboratories.
PrP 5UTR inh = inhibition of PrP 5' UTR reporter expression; hit rate 0.35% among 340,000; cell-based PrP 5' UTR mRNA reporter, plate reader; inhibition, % (no concentration beside the values); AID 488862;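 active = every replicate at 50% or more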;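 note: 0 = median of the neutral control wells; tested in H4 reporter cells; numbers are from one replicate; inactives centre near -14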
Sa ugtP lethal = compounds lethal to S. aureus RN4220 ugtP deletion mutant | OD600 growth, 16 h; some inactives read as strong as hits | growth inhibition, % (no concentration beside the values) | hit rate 0.54% among 330,000 | AID 1259309;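 active = z-score under -3 and OD600 up to 0.15 on both plates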;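 note: plate controls were untreated wells for no effect and antibiotic for full effect; wells of about 80 µL received 100 nL stock; the first replicate is given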
Bead autofluor = flagged as autofluorescent in microsphere protease counterscreen; compound autofluorescence counterscreen, microsphere flow cytometry; hits give high values; fluorescence intensity (test concentration not listed); hit rate 3.1% among 360,000; AID 624483;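 active = at least 3 SD above the mean of all compounds, about 16000 in these data; inconclusive = too few beads counted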;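 note: 100 nL of 1 mM stock went into each well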
BJeLR viability = kills HRASV12-expressing BJeLR cells. hit rate 0.17% among 300,000. inhibition, % (no concentration beside the values). BJeLR (HRASV12) viability, CellTiter-Glo ATP luminescence, 48 h; reference of the scale not given here;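 active = replicate mean above 50%; inconclusive = above 50% but judged a plate artefact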;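 note: 50 nL library stock added to about 25 µL; numbers are from one replicate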
Mtb hypoxia rep = Mtb hypoxia fluorescent reporter inhibition. M. tuberculosis hypoxia-regulated fluorescent reporter, fluorescence. fluorescence inhibition, % (test concentration not listed). hit rate 0.1% among 300,000. AID 1159583;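 active = 35 to 45% if threefold the growth effect, above 45% if 1.5-fold the growth effect; inactive = the rest, general growth blockers included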;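 note: wells of about 50 µL received 100 nL stock; 0% = vehicle wells and 100% = reference inhibitor wells; whole bacteria with a GFP reporter of the hypoxia response; strong numbers were not always called active; many hits fall short of the cut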
RN4220 kill = kills Staphylococcus aureus RN4220; hit rate 0.33% among 330,000; AID 1259311; inhibition, % (no concentration beside the values); S. aureus RN4220 growth, OD600, 16 h;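 active = z-score of -3 or lower and OD600 up to 0.18 on both plates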;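 note: plate controls were untreated cells for no effect and reference antibiotic for full effect; stock transfer was 100 nL into about 80 µL; one replicate is shown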
Mtb hypoxia rep growth = second read-out of Mtb hypoxia rep, no call of its own (marks repeat the call); growth inhibition, %; measured here: M. tuberculosis growth (absorbance);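 0% = vehicle and 100% = reference antibiotic; read after six days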
An asterisk follows results filed as active.

How did O=C(O)c1ccccc1C(=O)NNc1ccc(F)cc1F do in these assays?
PrP 5UTR inh: -18; Sa ugtP lethal: 6; Bead autofluor: 2483; BJeLR viability: -1; Mtb hypoxia rep: 20; RN4220 kill: 5.3; Mtb hypoxia rep growth: 6

How did O=C(Nc1ccc(-c2nc3ccccc3[nH]2)cc1)C1CCCO1 (stereo not given) do in these assays?
PrP 5UTR inh: -28; Sa ugtP lethal: 4; Bead autofluor: 11946; BJeLR viability: 43; Mtb hypoxia rep: 3; RN4220 kill: 1.2; Mtb hypoxia rep growth: 4

Results for COCCn1c(SCC(=O)Nc2ccc(NC(C)=O)cc2)nc2c([nH]c3ccccc32)c1=O ?
PrP 5UTR inh: -16; Sa ugtP lethal: 0; Bead autofluor: 5524; BJeLR viability: -1; Mtb hypoxia rep: 13; RN4220 kill: 1.0; Mtb hypoxia rep growth: 0

Results for Cc1ccc2nc(-c3ccccn3)cc(C(=O)Nc3ccc4c(c3)OCO4)c2c1 ?
PrP 5UTR inh: 2; Sa ugtP lethal: 4; Bead autofluor: 4442; BJeLR viability: -4; Mtb hypoxia rep: 18; RN4220 kill: 6.5; Mtb hypoxia rep growth: 11

What do the screens show for `C=CC[C@H](CC(=O)NCCO)C(=O)N[C@H](COC(=O)[C@H](CC=C)CC(=O)OC(C)(C)C)Cc1c[nH]c2ccccc12`?
PrP 5UTR inh: -7; Sa ugtP lethal: 3; Bead autofluor: 3715; Mtb hypoxia rep: -1; RN4220 kill: 3.9; Mtb hypoxia rep growth: 3

What do the screens show for `COC(=O)C1=C(c2cccc(C#N)c2)CC2CCC1N2C(=O)NC1CC1` (stereo not given)?
Sa ugtP lethal: -5; Mtb hypoxia rep: 3; RN4220 kill: 4.8; Mtb hypoxia rep growth: -2

Results for CCCCn1c(N)c(N(CCOC)C(=O)c2ccc(-c3ccc(C(C)=O)cc3)o2)c(=O)[nH]c1=O ?
PrP 5UTR inh: -1; Sa ugtP lethal: -4; Bead autofluor: inconclusive; BJeLR viability: 5; Mtb hypoxia rep: -3; RN4220 kill: 4.5; Mtb hypoxia rep growth: 9

How did Cc1cc(NC(=O)CN2C(=O)/C(=C/c3ccccc3F)SC2=S)no1 do in these assays?
PrP 5UTR inh: -16; Sa ugtP lethal: 2; Bead autofluor: 3796; BJeLR viability: -8; Mtb hypoxia rep: 14; RN4220 kill: 1.4; Mtb hypoxia rep growth: 6

How did CC(=O)Nc1ccc(NC(=O)C(Cc2ccccc2)NC(=O)C2CCCCC2)cc1 (stereo not given) do in these assays?
PrP 5UTR inh: 6; Sa ugtP lethal: 1; Bead autofluor: 2435; BJeLR viability: -2; Mtb hypoxia rep: -8; RN4220 kill: -1.4; Mtb hypoxia rep growth: 1

How did Cc1noc(NS(=O)(=O)c2ccc(NC(=O)c3cnc4n(c3=O)CCS4)cc2)c1C do in these assays?
PrP 5UTR inh: -19; Sa ugtP lethal: -3; Bead autofluor: 21016*; BJeLR viability: 0; Mtb hypoxia rep: 19; RN4220 kill: -3.7; Mtb hypoxia rep growth: 18

How did CCCC(=O)N(c1ccc(F)cc1)C1C=CS(=O)(=O)C1 (stereo not given) do in these assays?
PrP 5UTR inh: -20; Sa ugtP lethal: 12; Bead autofluor: 6664; BJeLR viability: 11; Mtb hypoxia rep: 14; RN4220 kill: 5.0; Mtb hypoxia rep growth: -2

How did Cc1ccccc1-c1nn(-c2ccc(F)cc2F)cc1CNCCCO do in these assays?
PrP 5UTR inh: -15; Sa ugtP lethal: 1; Bead autofluor: 2066; BJeLR viability: -2; Mtb hypoxia rep: 3; RN4220 kill: 2.1; Mtb hypoxia rep growth: 1

What do the screens show for `CCOc1ccc(Oc2ccc(S(=O)(=O)N3CCOCC3)cc2N)cc1`?
PrP 5UTR inh: -15; Sa ugtP lethal: 9; Bead autofluor: 4526; BJeLR viability: 11; Mtb hypoxia rep: 17; RN4220 kill: 2.1; Mtb hypoxia rep growth: 4

What do the screens show for `CCCCN(C(=O)C1CSC2(C)CCC(=O)N12)c1c(N)n(Cc2ccccc2)c(=O)[nH]c1=O` (stereo not given)?
PrP 5UTR inh: -5; Sa ugtP lethal: 7; Bead autofluor: 5361; Mtb hypoxia rep: -13; RN4220 kill: 2.2; Mtb hypoxia rep growth: -12

Results for O=C(Nc1ccc(Cl)cc1)C1CC=CCC1C(=O)OCC(F)(F)C(F)F (stereo not given) ?
PrP 5UTR inh: -23; Sa ugtP lethal: 3; Bead autofluor: 9273; BJeLR viability: 6; Mtb hypoxia rep: 5; RN4220 kill: 7.2; Mtb hypoxia rep growth: 14

How did O=C(NCc1ccc2c(c1)OCO2)C12CN(Cc3ccccc3)CC1C(c1cccc([N+](=O)[O-])c1)=NO2 (stereo not given) do in these assays?
PrP 5UTR inh: 5; Sa ugtP lethal: 3; Bead autofluor: 3520; BJeLR viability: -4; Mtb hypoxia rep: 3; RN4220 kill: 0.6; Mtb hypoxia rep growth: 6

How did Cc1cc(C)nc(NC(=S)Nc2ccc(F)cc2F)c1 do in these assays?
PrP 5UTR inh: -17; Sa ugtP lethal: 11; Bead autofluor: 4148; BJeLR viability: 1; Mtb hypoxia rep: 7; RN4220 kill: 6.3; Mtb hypoxia rep growth: 7

What do the screens show for `CCN(CC)c1ccc(C=NNS(=O)(=O)c2cccc([N+](=O)[O-])c2)cc1`?
Sa ugtP lethal: 6; Mtb hypoxia rep: -5; RN4220 kill: 6.7; Mtb hypoxia rep growth: 0

What do the screens show for `Cc1ccc2c(CN3CCC(C(N)=O)CC3)cc(=O)oc2c1C`?
PrP 5UTR inh: -20; Sa ugtP lethal: 5; Bead autofluor: 6223; BJeLR viability: -9; Mtb hypoxia rep: -10; RN4220 kill: 6.7; Mtb hypoxia rep growth: 6

What do the screens show for `N=c1c2c(n(Cc3ccc(Br)cc3)c3c1CCC3)CCCC2`?
PrP 5UTR inh: -18; Sa ugtP lethal: 99*; Bead autofluor: 2055; BJeLR viability: 22; Mtb hypoxia rep: 24; RN4220 kill: 41; Mtb hypoxia rep growth: 28

What do the screens show for `O=C(Nc1cccc(S(=O)(=O)N2CCCC2)c1)c1cccnc1`?
PrP 5UTR inh: -14; Sa ugtP lethal: -1; Bead autofluor: 6108; BJeLR viability: 13; Mtb hypoxia rep: 13; RN4220 kill: 1.4; Mtb hypoxia rep growth: -1

How did O=C(c1ccco1)N1CCN(C(=O)c2ccc(Cn3cc(Br)cn3)o2)CC1 do in these assays?
PrP 5UTR inh: -17; Sa ugtP lethal: -7; Bead autofluor: 3254; BJeLR viability: 7; Mtb hypoxia rep: 0; RN4220 kill: -26; Mtb hypoxia rep growth: 11

What do the screens show for `CC1(C)CC(=O)C/C(=N\NC(=O)C2CC23CCC3)C1` (stereo not given)?
PrP 5UTR inh: 3; Bead autofluor: 4481; BJeLR viability: 7

What do the screens show for `O=S(=O)(Nc1ccc(Cl)cc1)c1ccc(N2CCOCC2)c(NC(=S)NCCN2CCOCC2)c1`?
PrP 5UTR inh: -14; Sa ugtP lethal: -2; Bead autofluor: 3297; BJeLR viability: 2; Mtb hypoxia rep: -3; RN4220 kill: 3.8; Mtb hypoxia rep growth: 7

How did N=C(N)SCCc1cccc(CCSC(=N)N)c1 do in these assays?
PrP 5UTR inh: 71*; Sa ugtP lethal: 0; Bead autofluor: 6146; BJeLR viability: 5; Mtb hypoxia rep: 4; RN4220 kill: 1.6; Mtb hypoxia rep growth: 1

How did COC(=O)c1cc2sc(Cl)cc2n1CC(=O)Nc1cccc(SC)c1 do in these assays?
PrP 5UTR inh: -17; Sa ugtP lethal: -18; Bead autofluor: 8493; BJeLR viability: 2; Mtb hypoxia rep: -1; RN4220 kill: -5.4; Mtb hypoxia rep growth: 0

What do the screens show for `Cc1ccc(C)c(C(=O)c2ccccc2NC(=O)c2ccccn2)c1`?
PrP 5UTR inh: -14; Sa ugtP lethal: 34; Bead autofluor: 3947; BJeLR viability: 2; Mtb hypoxia rep: 2; RN4220 kill: -0.1; Mtb hypoxia rep growth: 1

How did O=C1SCCC1NC(=O)C(c1ccccc1)c1ccccc1 (stereo not given) do in these assays?
PrP 5UTR inh: -14; Sa ugtP lethal: 9; Bead autofluor: 5400; BJeLR viability: -5; Mtb hypoxia rep: 4; RN4220 kill: 0.2; Mtb hypoxia rep growth: 16

How did CCc1nnc(NC(=O)c2cc(C)nc3ccccc23)s1 do in these assays?
PrP 5UTR inh: -21; Sa ugtP lethal: 9; Bead autofluor: 4881; BJeLR viability: -2; Mtb hypoxia rep: 1; RN4220 kill: 0.5; Mtb hypoxia rep growth: 3

What do the screens show for `CN(C)S(=O)(=O)c1cccc(NC(=S)N/N=C/C2CC=CCC2)c1` (stereo not given)?
PrP 5UTR inh: -31; Bead autofluor: 4346; BJeLR viability: 3

How did O=c1[nH]c(CN2CCN(S(=O)(=O)c3ccccc3C(F)(F)F)CC2)nc2sc3c(c12)CCCC3 do in these assays?
PrP 5UTR inh: 5; Sa ugtP lethal: 3; Bead autofluor: 2423; BJeLR viability: -7; Mtb hypoxia rep: -4; RN4220 kill: 5.1; Mtb hypoxia rep growth: -6

How did COc1ccc(S(=O)(=O)N2CCN(c3ccccn3)CC2)cc1[N+](=O)[O-] do in these assays?
PrP 5UTR inh: 1; Sa ugtP lethal: 1; Bead autofluor: 3870; BJeLR viability: 8; Mtb hypoxia rep: 8; RN4220 kill: 1.6; Mtb hypoxia rep growth: -2

Results for CC1CCN(c2c(NCc3ccc(C(=O)N4CCN(C5CCCCC5)CC4)cc3)c(=O)c2=O)CC1 ?
PrP 5UTR inh: -29; Sa ugtP lethal: 9; Bead autofluor: 5086; BJeLR viability: 9; Mtb hypoxia rep: 3; RN4220 kill: 0.2; Mtb hypoxia rep growth: 7

How did Cc1ccc(NC(=O)CCCCCN2C(=O)c3ccccc3C2=O)nc1 do in these assays?
PrP 5UTR inh: -12; Sa ugtP lethal: 6; Bead autofluor: 2475; BJeLR viability: 3; Mtb hypoxia rep: 10; RN4220 kill: 6.6; Mtb hypoxia rep growth: -1

Results for O=C(CN1C(=O)c2ccccc2S1(=O)=O)c1ccccc1 ?
PrP 5UTR inh: 32; Sa ugtP lethal: 4; Bead autofluor: 2865; BJeLR viability: 12; RN4220 kill: 2.5

How did CCCn1c(/N=C/c2ccccc2O)nc2ccccc21 do in these assays?
PrP 5UTR inh: -7; Bead autofluor: 3811; BJeLR viability: -4

What do the screens show for `Cn1c(SCC(=O)N2CCCc3ccccc32)nc2ccccc2c1=O`?
PrP 5UTR inh: -7; Sa ugtP lethal: -4; BJeLR viability: 14; Mtb hypoxia rep: 13; RN4220 kill: 6.7; Mtb hypoxia rep growth: 10

In the list so far, these contain an NH in an aromatic ring.
How did O=C(Nc1ccc(-c2nc3ccccc3[nH]2)cc1)C1CCCO1 (stereo not given) do in these assays?
PrP 5UTR inh: -28; Sa ugtP lethal: 4; Bead autofluor: 11946; BJeLR viability: 43; Mtb hypoxia rep: 3; RN4220 kill: 1.2; Mtb hypoxia rep growth: 4

Results for COCCn1c(SCC(=O)Nc2ccc(NC(C)=O)cc2)nc2c([nH]c3ccccc32)c1=O ?
PrP 5UTR inh: -16; Sa ugtP lethal: 0; Bead autofluor: 5524; BJeLR viability: -1; Mtb hypoxia rep: 13; RN4220 kill: 1.0; Mtb hypoxia rep growth: 0

What do the screens show for `C=CC[C@H](CC(=O)NCCO)C(=O)N[C@H](COC(=O)[C@H](CC=C)CC(=O)OC(C)(C)C)Cc1c[nH]c2ccccc12`?
PrP 5UTR inh: -7; Sa ugtP lethal: 3; Bead autofluor: 3715; Mtb hypoxia rep: -1; RN4220 kill: 3.9; Mtb hypoxia rep growth: 3

Results for CCCCn1c(N)c(N(CCOC)C(=O)c2ccc(-c3ccc(C(C)=O)cc3)o2)c(=O)[nH]c1=O ?
PrP 5UTR inh: -1; Sa ugtP lethal: -4; Bead autofluor: inconclusive; BJeLR viability: 5; Mtb hypoxia rep: -3; RN4220 kill: 4.5; Mtb hypoxia rep growth: 9

What do the screens show for `CCCCN(C(=O)C1CSC2(C)CCC(=O)N12)c1c(N)n(Cc2ccccc2)c(=O)[nH]c1=O` (stereo not given)?
PrP 5UTR inh: -5; Sa ugtP lethal: 7; Bead autofluor: 5361; Mtb hypoxia rep: -13; RN4220 kill: 2.2; Mtb hypoxia rep growth: -12

How did O=c1[nH]c(CN2CCN(S(=O)(=O)c3ccccc3C(F)(F)F)CC2)nc2sc3c(c12)CCCC3 do in these assays?
PrP 5UTR inh: 5; Sa ugtP lethal: 3; Bead autofluor: 2423; BJeLR viability: -7; Mtb hypoxia rep: -4; RN4220 kill: 5.1; Mtb hypoxia rep growth: -6

This is a random part of the collection. About 4.1% of those tested had a hit in this group.
